TRPV1 potentiator: human TRPV1 potentiation | Q8NER1 | TRPV1-expressing cells, Fluo-8 calcium influx, capsaicin EC20 potentiation; host cell line not named in the record; control for the full effect not named in the record | potentiation, % at 8.33 µM | 320,000 compounds, 0.02% hits | AID 540277; active means potentiation above 80%; inconclusive means 30% to 80%; inactive means below 30%; note: 0% is about no effect
Target sequence (Q8NER1 whole entry, looked up): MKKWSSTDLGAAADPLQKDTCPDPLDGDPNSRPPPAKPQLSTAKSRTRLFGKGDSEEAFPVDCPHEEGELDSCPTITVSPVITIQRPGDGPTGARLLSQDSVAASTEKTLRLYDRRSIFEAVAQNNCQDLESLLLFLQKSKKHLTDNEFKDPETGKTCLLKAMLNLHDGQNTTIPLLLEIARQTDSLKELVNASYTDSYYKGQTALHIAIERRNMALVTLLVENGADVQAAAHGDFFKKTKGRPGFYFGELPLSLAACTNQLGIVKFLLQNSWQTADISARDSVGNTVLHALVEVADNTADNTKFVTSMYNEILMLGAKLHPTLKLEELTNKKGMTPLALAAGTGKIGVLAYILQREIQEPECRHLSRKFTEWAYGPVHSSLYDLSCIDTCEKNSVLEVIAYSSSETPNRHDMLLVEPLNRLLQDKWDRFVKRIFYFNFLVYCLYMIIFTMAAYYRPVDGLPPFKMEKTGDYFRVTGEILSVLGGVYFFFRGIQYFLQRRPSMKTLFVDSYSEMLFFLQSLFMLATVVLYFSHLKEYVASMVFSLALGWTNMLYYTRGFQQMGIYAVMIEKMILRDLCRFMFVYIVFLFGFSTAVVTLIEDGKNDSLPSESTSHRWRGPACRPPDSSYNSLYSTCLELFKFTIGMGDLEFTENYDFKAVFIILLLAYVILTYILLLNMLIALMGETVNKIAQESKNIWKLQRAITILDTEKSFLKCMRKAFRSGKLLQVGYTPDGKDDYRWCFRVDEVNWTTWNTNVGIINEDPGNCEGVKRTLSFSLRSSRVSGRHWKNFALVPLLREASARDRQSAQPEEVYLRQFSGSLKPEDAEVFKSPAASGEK
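TRPV1-expressing cells were cultured overnight at 35.5C and loaded with Fluo-8 calcium dye for 40 to 90 min at room temperature. After a 10 s baseline, compound was added and calcium influx was read kinetically for 3 min (ex 480/em 520 nm).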
CtBP-E1A blk: inhibitors of CtBP/E1A interaction. 340,000 compounds, 0.49% hits. AlphaScreen GST-E1A/His-CtBP binding, 1536-well; hits give low values; control for the full effect not named in the record. AID 651724. activity change, % (no concentration beside the values); in the data active means activity change below about -65%; inconclusive means about -30% to -65%; inactive means above about -30%; note: % is set by controls: 0 for no effect and ±100 for the full control effect
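Homogeneous bead-based format: GST-tagged E1A captured on glutathione donor beads, His-tagged CtBP on nickel acceptor beads; compounds precede bead addition by 2 h at 37 °C.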
ClpP mod: qHTS Assay for Activators of ClpP; ATP-dependent Clp protease proteolytic subunit (Bacillus subtilis (strain 168)), P80244; purified B. subtilis ClpP, FRET peptide cleavage, 20 min; Potency, µM (doses to about 57.5 µM), without a hit: at the top dose activity change, negative = active; 340,000 compounds, 1.9% hits; active = well fitted falling curve with a large enough effect; inconclusive = small, poorly fitted or top-dose-only effect; inactive = no such curve, though single readings can be large or run the other way; note: potency is the fitted concentration of half-maximal effect; the source files actives as falling curves though it sought activators and does not explain the sign; nearly all actives have a fitted effect of over 65% in size; many hits overshoot -100%
Target sequence (P80244 whole entry, looked up): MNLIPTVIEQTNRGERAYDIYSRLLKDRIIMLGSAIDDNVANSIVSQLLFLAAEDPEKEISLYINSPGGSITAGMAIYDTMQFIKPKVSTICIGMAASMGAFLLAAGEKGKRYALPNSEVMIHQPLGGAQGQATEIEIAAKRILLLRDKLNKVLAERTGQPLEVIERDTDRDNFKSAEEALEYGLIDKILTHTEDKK
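ClpP 10 microg/mL final, pH 8 Tris/KCl buffer with BSA, glycerol, Tween-20; compound pinned in; FRET-FV substrate; RT 20 min; Ex320/Em430; ΔFRET vs ADEP 5.8 microM, DMSO, no enzyme.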
gsp ag: gsp mutant agonism; gsp mutant cells, cAMP HTRF, 30 min; control for the full effect not named in the record; 340,000 compounds, 0.13% hits; Potency, µM (top dose mostly 76.9 µM), without a hit: at the top dose activation (cAMP increase), hits mostly activators; active = well fitted activation curve with a large enough effect; inconclusive = small, poorly fitted or top-dose-only effect, or another doubt; inactive = no such curve, though single readings can be large or run the other way; cell line not stated here;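 note: phosphodiesterase inhibitor Ro 20-1724 added with compounds to block cAMP breakdown; potency is the fitted concentration of half-maximal effect; nearly all actives have a fitted effect of over 60% in size; about a fifth of the inactives were tested at one dose only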
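Cells stably selected in G418 were plated at 2000/well, grown 16-24 hr, then given compounds in DMSO with the PDE inhibitor […] (300 uM solution added) for 30 min at 37C; cAMP was read by HTRF.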
Menin-MLL FL inh: menin-MLL binding inhibition, fluorescein peptide; AID 1766; 290,000 tested, under 10 active; Fluorescence polarization, fluorescein-MLL peptide displacement from menin; FP activity change, % at 61.4 µM; inconclusive = falling polarisation curve, or a change in total fluorescence; inactive = total fluorescence flat and polarisation flat or rising; no compound was filed as active; the % refers to the polarisation; negative = inhibition;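 note: % of control where 0% means no effect; inhibitors lower the polarisation; unlabelled MLL peptide was the positive control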
gsp antagonist: antagonists of gsp mutant (McCune-Albright syndrome). gsp-mutant cells, cAMP HTRF, 30 min; control for the full effect not named in the record. 340,000 compounds, 0.4% hits. AID 624288. Potency, µM (top dose mostly 76.9 µM), for inactives: at the top dose activity change, negative = inhibition, hits mostly inhibitors; active = falling curve of any shape with a large fitted effect; inconclusive = falling curve, mostly with a smaller effect; inactive = flat or rising curve; cell line not stated here;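 note: intracellular cAMP measured with PDE inhibitor Ro 20-1724 present during compound exposure; potency is the fitted concentration of half-maximal effect; % is set by controls: 0 for no effect and ±100 for the full control effect; nearly all actives have a fitted effect of over 65% in size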
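Cells in G418 medium, seeded 16-24 h, 37C; buffer exchange to DPBS + 1 mM CaCl2, 0.5 mM MgCl2, 0.05% BSA; cpds in DMSO + […] (300 uM stock), 30 min 37C; HTRF cAMP detection.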
Sfp inh: inhibitors of Bacillus subtilis Sfp phosphopantetheinyl transferase; AID 1490; Biochemical Sfp PPTase activity, qHTS; 310,000 compounds, 3.5% hits; Potency, µM, without a hit: max response, negative = inhibition, usual class: inhibitors; Q9F4F7; active = well fitted inhibition curve with a large enough effect; inconclusive = small, poorly fitted or top-dose-only effect, or another doubt; inactive = no such curve, though single readings can be large or run the other way;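 note: the enzyme is Sfp with the accession as filed and its product quenches rhodamine fluorescence; potency is the fitted concentration of half-maximal effect; 0% = enzyme reaction without inhibitor and -100% = no enzyme wells; top concentration of the series not given in the record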
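Reaction rates are the 30-min fluorescence difference (ex 525, em 598 nm) in wells containing 15 nM Sfp, 5 uM rhodamine-CoA and 12.5 uM BHQ-2-YbbR at pH 7.6 with 10 mM MgCl2.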
* marks the source's active call; other numbers are inactive results; ? = inconclusive; . = no result given; [ ] = dose if it differs, or a comment.

Labels used below: A = TRPV1 potentiator; B = CtBP-E1A blk; C = ClpP mod; D = gsp ag; E = Menin-MLL FL inh; F = gsp antagonist; G = Sfp inh
> Cc1cc(=O)n2[nH]c(C(=O)O)nc2n1
  A: 4 | B: 3 | C: 0.4% | D: ? | E: 3.5 | F: 2% | G: ?

> CC(C)Cc1nc2oc3c(NCC4CCCO4)ncnc3c2c2c1CCC2 (configuration not stated)
  A: -9 | B: 1 | C: ? | D: -2% | E: 2.8 | F: -11% | G: 14%

> CC(C)C1S/C(=N/N=C/c2cccs2)NC1=O (configuration not stated)
  A: 9 | B: -17 | C: -2.3% | D: -18% | E: 2.9 | F: ? | G: 3%

> Cc1nnc(SCc2nc3ccccc3nc2C)s1
  A: -1 | B: -7 | C: -2.5% | D: 30% | E: 5.0 | F: 17% | G: 19%

> Cc1nn(C(C)C(=O)NCCCN2CCCC2)c(=O)c2nn(-c3ccccc3)c(C)c12 (configuration not stated)
  A: 27 | B: 0 | C: -2.3% | D: ? | E: -1.8 | F: -19% | G: 11%

> COc1ccc(-n2cc(CNCCc3cnc[nH]3)c(-c3cccc(F)c3)n2)cc1
  A: -10 | B: -2 | C: . | D: -2%[15.4 µM] | E: 2.9 | F: 0% | G: 14%

> CCOc1ccc(N=C(NC#N)SCC)cc1
  A: -3 | B: -3 | C: 1.4% | D: -49%[inhibitor] | E: -0.7 | F: 4% | G: 13%

> Cc1ccc(C2(CCNS(=O)(=O)c3ccc(C)cc3)CCOC(C(C)C)C2)cc1 (configuration not stated)
  A: 3 | B: -4 | C: 1.1% | D: 0% | E: 2.6 | F: -11% | G: 7%

> Cc1cc(C)c(S(=O)(=O)N2CCCCC2CCNC(=O)C(=O)NCc2ccco2)c(C)c1 (configuration not stated)
  A: -7 | B: -2 | C: 14µM* | D: -5%[15.4 µM] | E: . | F: -16% | G: .

> O=C(NC1CCN(Cc2ccc(Cl)cc2)CC1)c1cn(-c2ccccc2)nc1-c1cccnc1
  A: -6 | B: -15 | C: -3.4% | D: -49%[inhibitor] | E: . | F: -13% | G: .

> Cc1cccc(C(=O)NNC(=O)c2ccc(S(=O)(=O)N3CCOCC3)cc2)c1
  A: 0 | B: 17 | C: . | D: 1%[15.4 µM] | E: 4.4 | F: . | G: 12%

> CCN1C(=O)c2ccc(C(=O)Nc3ccc(O)cc3C)cc2C1=O
  A: -2 | B: -21 | C: . | D: 48% | E: -9.8 | F: 7% | G: 18%

> CC(C)CCN(C(=O)c1ccncc1)c1c(N)n(Cc2ccccc2)c(=O)[nH]c1=O
  A: 1 | B: 3 | C: -1.7% | D: ? | E: . | F: 3% | G: .

> Cc1ccc(CNCc2cc3c(C(C)(C)C)nn(-c4ccccc4)c3[nH]c2=O)cc1
  A: -2 | B: 4 | C: 1.2% | D: -27% | E: 13 | F: 0% | G: 12%

> COCCNC(=O)COc1cccc(Oc2ccccc2)c1
  A: -23 | B: 2 | C: 0.1% | D: 19% | E: 1.0 | F: -1% | G: -2%

> CC1CN(c2ccc(S(=O)(=O)N3CCCC3)cn2)CC(C)O1 (configuration not stated)
  A: 6 | B: -3 | C: -14% | D: 36% | E: 1.8 | F: -17% | G: 19%

> Cc1cccc(/C=N/n2c(-c3cc(-c4ccccc4)n[nH]3)n[nH]c2=S)c1
  A: 18 | B: -8 | C: 25µM* | D: 10% | E: 1.3 | F: -18% | G: ?

> O=C(CNC(=O)C(c1ccccc1)c1ccccc1)N/N=C/c1cccnc1
  A: -17 | B: 3 | C: . | D: 6%[15.4 µM] | E: 4.9 | F: 3% | G: -9%

> Cc1c(C)c2ccc(OCC(=O)NC3CCN(Cc4ccccc4)CC3)cc2oc1=O
  A: -4 | B: -6 | C: 3.4% | D: 22% | E: . | F: -5% | G: 21%

> COc1cccc2sc3cc(NCc4ccc5c(c4)OCO5)ccc3c(=O)c12
  A: . | B: -22 | C: ? | D: . | E: . | F: 11% | G: .

> O=C1CCc2cc(S(=O)(=O)Nc3ccccc3F)cc3c2N1CCC3
  A: 6 | B: 4 | C: 0.6% | D: ? | E: . | F: 10% | G: .

> Fc1ccc(-c2csc3ncnc(N4CCc5ccccc5C4)c23)cc1
  A: -2 | B: 1 | C: -15% | D: 30% | E: 11 | F: -9% | G: -25%

> Cc1ccc2[nH]c3c(c2c1)CCN(C)C3
  A: -2 | B: -12 | C: -0.3% | D: 8% | E: 0.4 | F: 2% | G: 16%

> O=C1C(=O)c2ccccc2C(O)=C1C1CCC(c2ccc(Cl)cc2)CC1 (configuration not stated)
  A: 11 | B: -4 | C: 2.6% | D: . | E: 2.2 | F: ? | G: ?

> O=S(=O)(Nc1nc2ccccc2nc1NCC1CCCO1)c1ccccc1 (configuration not stated)
  A: ? | B: 2 | C: . | D: -7%[15.4 µM] | E: 3.0 | F: -15% | G: -1%

Taken from above:
ClpP mod with CC(C)CCN(C(=O)c1ccncc1)c1c(N)n(Cc2ccccc2)c(=O)[nH]c1=O = -1.7%
gsp antagonist with Cc1ccc(CNCc2cc3c(C(C)(C)C)nn(-c4ccccc4)c3[nH]c2=O)cc1 = 0%
TRPV1 potentiator with O=C(CNC(=O)C(c1ccccc1)c1ccccc1)N/N=C/c1cccnc1 = -17

Carrying on.
Labels used below: A = TRPV1 potentiator; B = CtBP-E1A blk; C = ClpP mod; D = gsp ag; E = Menin-MLL FL inh; F = gsp antagonist; G = Sfp inh
> O=C(CSc1ncnc2nc[nH]c12)Nc1ccccc1C(F)(F)F
  A: -2 | B: 0 | C: -1.2% | D: -34%[inhibitor] | E: 1.9 | F: 5% | G: 9%

> CCCCN(C)CCNC(=O)c1cc2c(-c3ccccc3F)nn(C)c2s1
  A: -4 | B: 3 | C: 25µM* | D: 1%[15.4 µM] | E: -7.1 | F: -9% | G: -1%

> COCCCNC(=O)CSc1nc2c(sc3ccccc32)c(=O)n1CCCC(=O)NCC1CCCO1 (configuration not stated)
  A: ? | B: -7 | C: . | D: 6%[15.4 µM] | E: -3.5 | F: 3% | G: 19%

> O=C1C2C3C=CC(C4CC34)C2C(=O)N1/N=C/c1ccc(-c2ccc(F)cc2[N+](=O)[O-])o1 (configuration not stated)
  A: 5 | B: -11 | C: -1.1% | D: -49%[inhibitor] | E: -1.3 | F: ? | G: -24%

> Cc1ccc2nc(-c3ccncc3)cc(C(=O)Nc3ccc(OC(F)F)cc3)c2c1
  A: 2 | B: -3 | C: . | D: 27%[15.4 µM] | E: 6.9 | F: -9% | G: -17%

> O=[N+]([O-])c1cc(/C=N\Nc2ccccn2)ccc1Cl
  A: 3 | B: -8 | C: 1.1% | D: -1% | E: -0.9 | F: -11% | G: 1%

> O=C(/C=C/c1ccc2c(c1)OCO2)NCCS(=O)(=O)N1CCN(c2ccccc2)CC1
  A: . | B: -11 | C: -23% | D: -44%[inhibitor] | E: . | F: . | G: .

> O=C(CN1CC(c2ccccc2)CC1=O)OCc1ccccc1F (configuration not stated)
  A: 1 | B: -6 | C: 0.7% | D: -52%[inhibitor] | E: 3.1 | F: -21% | G: -18%

> COC(=O)CN1C(=O)S/C(=C/c2cc(C)n(C)c2C)C1=O
  A: -7 | B: -15 | C: -2.1% | D: 1% | E: 2.9 | F: 4% | G: 12%

> CC(Sc1nc2ccccc2[nH]1)C(=O)O (configuration not stated)
  A: 14 | B: 5 | C: -2.2% | D: -22% | E: 0.5 | F: 9% | G: -5%

> COCCNc1nnc(SCC(=O)NNC(=O)c2ccc([N+](=O)[O-])cc2)s1
  A: -2 | B: 2 | C: . | D: -8%[15.4 µM] | E: . | F: 1% | G: .

> Cc1n[nH]c(=O)c2c(NC(=O)CSc3ccccc3Cl)oc(C)c12
  A: -12 | B: -12 | C: -1.9% | D: ? | E: . | F: 3% | G: .

> CCSC1=C(C#N)C(c2ccc3c(c2)OCO3)C2=C(CCCC2=O)N1 (configuration not stated)
  A: 22 | B: 3 | C: -2.1% | D: -11% | E: -0.5 | F: -1%[15.4 µM] | G: -15%

> O=C(CN1C(=O)NC2(CCCc3ccccc32)C1=O)NCc1cccs1 (configuration not stated)
  A: 5 | B: 1 | C: -0.5% | D: 14% | E: . | F: 6% | G: .

> CCOc1ccc(C(C)NC(=O)Cc2ccccc2)cc1OCC (configuration not stated)
  A: -4 | B: 7 | C: -5.3% | D: 0% | E: -2.8 | F: 7% | G: 7%

> Cc1cc(C)c2c(=O)n(CC(=O)N3CCC(N4CCCCC4)CC3)sc2n1
  A: 27 | B: 1 | C: ? | D: -48%[inhibitor] | E: -1.4 | F: 0% | G: 8.9µM*

> CCOc1ccc(C(=O)N2CCN(c3ccccn3)CC2)cc1
  A: 0 | B: 0 | C: 0.3% | D: -1%[15.4 µM] | E: -0.7 | F: 3% | G: -2%

> Cc1sc2nc(CN3CCOCC3)nc(NS(=O)(=O)c3cc(Cl)ccc3Cl)c2c1C
  A: -3 | B: 1 | C: 0.8% | D: 4% | E: . | F: ? | G: .

> CCC1(C)Cc2c(sc3nc4n(c(=O)c23)CCS4)CO1 (configuration not stated)
  A: -1 | B: 4 | C: -18% | D: -29% | E: -0.8 | F: 6%[15.4 µM] | G: 11%

> CC1CC1C(=O)OCC(=O)NNC(=O)COc1ccc(Br)cc1 (configuration not stated)
  A: ? | B: -3 | C: -2.5% | D: -2%[15.4 µM] | E: . | F: -3% | G: .

An excerpt from above in order of molar mass, largest number first.
Labels used below: A = TRPV1 potentiator; B = CtBP-E1A blk; C = ClpP mod; D = gsp ag; E = Menin-MLL FL inh; F = gsp antagonist; G = Sfp inh
> Cc1ccc2nc(-c3ccncc3)cc(C(=O)Nc3ccc(OC(F)F)cc3)c2c1
  A: 2 | B: -3 | C: . | D: 27%[15.4 µM] | E: 6.9 | F: -9% | G: -17%

> O=C(CN1C(=O)NC2(CCCc3ccccc32)C1=O)NCc1cccs1 (configuration not stated)
  A: 5 | B: 1 | C: -0.5% | D: 14% | E: . | F: 6% | G: .

> Cc1cc(=O)n2[nH]c(C(=O)O)nc2n1
  A: 4 | B: 3 | C: 0.4% | D: ? | E: 3.5 | F: 2% | G: ?

From PubChem
